High-throughput results (PubChem BioAssay)
HSV augment – HSV replication enhancement | HSV replication augmentation in cells, fold increase | maximum fold increase | 220,000 tested, 0.005% active;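 active means peak rise of 1.5-fold or more in the series; inconclusive means self-fluorescent or not available for retest; tested in PC3 cells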;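 further: first round at 10 µM; read as green reporter fluorescence; hits show the peak of a series up to 25 µM; 1 = signal of infected wells without compound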
PKD1 inh – inhibitors of human PKD1 kinase. PKD1 kinase fluorescence polarization assay. inhibition, %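 (about 10 µM by stock and volumes)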. 200,000 tested, 0.056% active. Q15139;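 active means inhibition of 50% or more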;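 further: controls were vehicle for no effect and a reference inhibitor for full effect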
RGS16-Gao – RGS16-Galphao interaction regulator (human) | O15492+P09471 | bead-based flow cytometry RGS16-Galphao binding, fluorescence; actives lie on both sides | binding response (% of control), % at 10 µM | 220,000 tested, 0.38% active | AID 1441;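 active means below 25% or above 175%, edge rows of some plates excepted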;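 further: Galphao activated by GDP with aluminum fluoride before binding; 100% = wells without compound and 0% = beads without RGS; some results beyond the cut were filed as inactive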
Target sequence (O15492 whole entry, looked up): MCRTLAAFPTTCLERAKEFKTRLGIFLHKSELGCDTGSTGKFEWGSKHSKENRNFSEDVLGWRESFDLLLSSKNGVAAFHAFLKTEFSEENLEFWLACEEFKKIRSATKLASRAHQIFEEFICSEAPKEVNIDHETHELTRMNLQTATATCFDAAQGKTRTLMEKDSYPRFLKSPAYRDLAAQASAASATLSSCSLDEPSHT
Target sequence (P09471 whole entry, looked up): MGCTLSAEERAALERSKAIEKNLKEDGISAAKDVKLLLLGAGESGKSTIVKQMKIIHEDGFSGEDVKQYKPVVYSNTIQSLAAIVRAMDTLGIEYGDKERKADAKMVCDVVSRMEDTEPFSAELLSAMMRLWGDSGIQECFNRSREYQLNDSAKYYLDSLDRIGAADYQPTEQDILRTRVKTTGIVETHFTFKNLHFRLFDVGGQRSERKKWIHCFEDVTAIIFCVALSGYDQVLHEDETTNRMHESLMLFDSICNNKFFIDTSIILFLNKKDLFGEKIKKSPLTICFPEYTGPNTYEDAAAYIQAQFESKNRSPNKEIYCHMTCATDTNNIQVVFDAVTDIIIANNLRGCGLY
Insulin prom inh – TRM-6 insulin promoter activity inhibition; TRM-6 cells (human fetal islet line), insulin promoter-eGFP reporter, imaging; reporter expression induced with tamoxifen; inhibition, % at 2 µM; 130,000 tested, 0.9% active; AID 1273;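 active means inhibition above the mean plus 3 SD, with well images judged a real hit on visual review, cut at about 60% in these data, passing the limit was not always enough; inconclusive means inhibition over the cutoff but images rejected on review; inactive means inhibition not above the cutoff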
GALR2 agonist – activates the human galanin receptor 2. O43603. GALR2-expressing cells, agonist activation read-out. activation, %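 (tested at 5 µM)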. 140,000 tested, 0.48% active;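 active means above mean plus 3 SD of all compounds, about 5% in these data, not always enough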;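 further: 0% = vehicle buffer wells and 100% = reference agonist at full effect; tested in CHO reporter cells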
Target sequence (O43603 whole entry, looked up): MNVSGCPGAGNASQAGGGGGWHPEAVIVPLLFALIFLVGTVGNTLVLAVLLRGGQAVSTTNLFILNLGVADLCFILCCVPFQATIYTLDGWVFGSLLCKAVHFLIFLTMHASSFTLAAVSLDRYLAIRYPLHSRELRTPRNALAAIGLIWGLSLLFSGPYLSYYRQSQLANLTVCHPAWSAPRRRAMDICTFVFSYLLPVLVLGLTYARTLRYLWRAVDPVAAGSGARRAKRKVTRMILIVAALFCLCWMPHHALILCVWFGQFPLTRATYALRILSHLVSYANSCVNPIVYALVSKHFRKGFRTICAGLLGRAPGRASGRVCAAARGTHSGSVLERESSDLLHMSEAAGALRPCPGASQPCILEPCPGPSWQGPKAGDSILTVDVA
Insulin prom inh cell count – also measured in Insulin prom inh; calls as there; normalized cell count, %; measured here: cell count, toxicity; reference of the scale not given here;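 cells exposed to compound for 48 h; stained nuclei by imaging scaled within each plate; lower means fewer cells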
HSV augment primary fold – also measured in HSV augment; calls as there; fold increase; compound at 10 µM; measured here: primary screen fold increase 10 uM; tested in PC3 cells;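 GFP signal in the first replicate; 1 = infected wells without compound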
* = called active by the depositor; i = inactive; ? = inconclusive; . = no result given.

Order of results: HSV augment, HSV augment primary fold, PKD1 inh, RGS16-Gao, Insulin prom inh, Insulin prom inh cell count, GALR2 agonist
O=C(NC(=S)Nc1ccc(CN2CCOCC2)cc1)c1ccco1
    i, 0.93, ., 103, ., ., .
CC(=O)N(C)N(C)c1cc(C)nc(N)n1
    i, 0.94, ., 100, ., ., .
O=C(Cn1nc(-c2ccc(Cl)cc2)ccc1=O)N1CCN(c2ccccc2)CC1
    ., ., 1, 103, 15, 53, 0.3
Cc1ccc(S(=O)(=O)N(C)CC(=O)Nc2cccc3c2CCCC3)cc1
    i, 0.94, -5, 94, -39, 117, -1.4
CCN1CCN(C2=NC(=O)/C(=C/c3ccc(C)o3)S2)CC1
    i, 1, 8, 36, -8, 105, -0.8
CNCCCOc1ccc(C)cc1Br
    i, 1.1, 1, 93, ., ., -1.0
CSc1ccc(C2NC(=O)c3c(sc4c3CCN(C)C4)N2)cc1 (stereo not drawn)
    ., ., -3, 98, ., ., 2.8
CCN(CC)C(=O)c1ccc2c3c(cccc13)C(=O)N(CCc1ccc(OC)c(OC)c1)C2=O
    i, 0.7, 5, 98, -19, 95, -1.1
Oc1ccccc1C=NCCN=Cc1ccccc1O
    i, 1, ., 98, ., ., .
CSc1nc(S(=O)(=O)c2ccccc2)c(Cl)s1
    i, 0.98, -4, 99, ., ., .
COc1ccc(C(CC(=O)N2CCOCC2)c2c(O)cc(OC)cc2OC)cc1 (stereo not drawn)
    i, 0.84, ., 113, ., ., .
Cn1nc(C(F)(F)F)c2cc(C(=O)O)sc21
    i, 1, -3, 107, ., ., .
Cc1cc(=O)[nH]c(SCCOc2ccc3c(c2)CCC3)n1
    i, 0.85, -8, 105, -278, 59, -0.9
CCc1cc(=O)oc2cc(C)cc(OCc3nn[nH]n3)c12
    i, 1.1, 1, 99, ., ., -0.8
CCC1(C)N=C(c2ccc3c(c2)OCO3)CC(c2ccccc2O)N1 (stereo not drawn)
    i, 0.96, -3, 99, -23, 86, -2.6
Cc1cc(=O)n2nc(N3CCCC(C(=O)NCCCN4CCc5ccccc5C4)C3)sc2n1 (stereo not drawn)
    ., ., -2, 133, 5, 95, -0.1
COC(=O)c1cc(OC)c(OC)cc1NC(=O)CSc1nnnn1Cc1ccccc1
    i, 0.99, -3, 96, ., ., -0.8
CC(C)CNC1=C(C(=S)Nc2ccccc2)C(=O)CC(C)(C)C1
    i, 1.2, 5, 93, -12, 63, -0.4
O=C(CN1CCCCCCC1)Nc1ccc(Cl)cc1Cl
    i, 1.1, -2, 112, 8, 87, .
Cc1c(NC(=O)C(C)OC(=O)CCc2ccccc2)c(=O)n(-c2ccccc2)n1C (stereo not drawn)
    i, 1, -6, 107, -50, 99, .

Individual results from above:
Entry for CCC1(C)N=C(c2ccc3c(c2)OCO3)CC(c2ccccc2O)N1 (stereo not drawn) in RGS16-Gao: 99
Entry for CCN(CC)C(=O)c1ccc2c3c(cccc13)C(=O)N(CCc1ccc(OC)c(OC)c1)C2=O in Insulin prom inh: -19
Entry for CCN1CCN(C2=NC(=O)/C(=C/c3ccc(C)o3)S2)CC1 in Insulin prom inh cell count: 105
Entry for Oc1ccccc1C=NCCN=Cc1ccccc1O in RGS16-Gao: 98
Entry for CSc1ccc(C2NC(=O)c3c(sc4c3CCN(C)C4)N2)cc1 (stereo not drawn) in RGS16-Gao: 98

Back to the main list; the 5 compounds before the break are reprinted first.
Order of results: HSV augment, HSV augment primary fold, PKD1 inh, RGS16-Gao, Insulin prom inh, Insulin prom inh cell count, GALR2 agonist
Cc1cc(=O)n2nc(N3CCCC(C(=O)NCCCN4CCc5ccccc5C4)C3)sc2n1 (stereo not drawn)
    ., ., -2, 133, 5, 95, -0.1
COC(=O)c1cc(OC)c(OC)cc1NC(=O)CSc1nnnn1Cc1ccccc1
    i, 0.99, -3, 96, ., ., -0.8
CC(C)CNC1=C(C(=S)Nc2ccccc2)C(=O)CC(C)(C)C1
    i, 1.2, 5, 93, -12, 63, -0.4
O=C(CN1CCCCCCC1)Nc1ccc(Cl)cc1Cl
    i, 1.1, -2, 112, 8, 87, .
Cc1c(NC(=O)C(C)OC(=O)CCc2ccccc2)c(=O)n(-c2ccccc2)n1C (stereo not drawn)
    i, 1, -6, 107, -50, 99, .
CC(=O)Nc1ccc(N=NN2CCOCC2)cc1
    i, 1.1, 0, 102, 19, 112, .
COc1ccc(C2=NOC(CNC(=S)N3CCOCC3)C2)cc1 (stereo not drawn)
    i, 1.1, ., 88, ., ., .
CCN(Cc1ccccc1)C(=O)COC(=O)c1cc(S(=O)(=O)Nc2c(C)n(C)n(-c3ccccc3)c2=O)ccc1C
    i, 0.94, -10, 98, ., ., .
CC(=O)/C=C/c1ccc(C)o1
    i, 0.99, 1, 95, -7, 96, .
COc1ccccc1NC(=O)N1c2ccc(F)cc2CCC1C (stereo not drawn)
    i, 0.86, 5, 93, -7, 125, -3.5
Cc1nc2ccc(NC(=S)N3CCN(c4ccccn4)CC3)cc2nc1C
    ., ., -7, 98, ., ., 0.1
O=C(Nc1ccc(Oc2ncccn2)cc1)c1ccco1
    i, 0.85, 7, 102, -89, 131, -1.3
CCCCOC(=O)c1ccc(NC(=O)c2ccoc2C)cc1
    i, 0.85, -2, 99, 28, 122, -0.1
O=C1SCCC1NS(=O)(=O)c1ccccc1[N+](=O)[O-] (stereo not drawn)
    i, 0.98, -3, 99, -13, 131, .
O=C1C(Cl)=C(N2CCCCC2)C(=O)N1c1ccccc1Cl
    i, 0.96, -10, 103, 12, 107, -1.7
CCOc1ccc(CN2CCN(Cc3cn(CC)nc3C)CC2CCO)cc1 (stereo not drawn)
    i, 0.92, -5, 102, ., ., .
Cn1c(N)c(C(=O)COC(=O)c2cnc(Cl)c(Cl)c2)c(=O)n(C)c1=O
    i, 1.1, 1, 110, ., ., .
CCC(=O)Nc1nc2ccc3sc(C)nc3c2s1
    i, 0.95, -2, 106, ., ., .
CCOc1cc(NC(=S)NCC2CCCO2)c(OCC)cc1NC(=O)C1CC1 (stereo not drawn)
    i, 0.94, -2, 147, ., ., .
COc1ccc(C)cc1S(=O)(=O)n1ccnc1C
    i, 0.97, 2, 110, 7, 94, .
Cc1ccc2cc(CN(C)C(=O)C3CCCO3)c(=O)[nH]c2c1 (stereo not drawn)
    i, 0.99, -8, 102, ., ., -3.0
O=C(Nc1ccc2nc(-c3ccccc3)oc2c1)c1ccco1
    i, 0.99, 2, 98, 0, 72, -0.2
CCc1ccc2[nH]c(=O)c(CN(CCCN3CCOCC3)C(=O)Nc3cccc(Cl)c3)cc2c1
    i, 0.72, -17, 100, ., ., 0.0
Cc1cc(N2C(=O)C(O)=C(C(=O)c3ccco3)C2c2ccc(O)cc2)no1 (stereo not drawn)
    ., ., -8, 95, 38, 91, -2.6
COCCN1C(=O)Cc2c1nc(N)c1c(N)nc(N3CCN(c4ccc(F)cc4)CC3)c(C#N)c21
    i, 1.1, -6, 97, -9, 106, .
Cc1ccc(NN=Nc2nc3c([nH]2)c(=O)n(C)c(=O)n3C)cc1
    i, 1.2, -3, 84, ., ., -0.9
Cn1c(C23CC4CC(CC(C4)C2)C3)n[nH]c1=S
    i, 1.1, -8, 99, 38, 95, -0.5
O=C(c1ccc(CNS(=O)(=O)c2ccccc2)cc1)N1CCN(c2ccccn2)CC1
    ., ., 1, 93, ., ., -1.0
COc1ccc(C(=O)OCC(=O)NC(=O)NC(C)C)cc1OC
    i, 1, -8, 99, ., ., .
COC(=O)N(NC(=O)C(O)(c1ccccc1)c1ccccc1)c1ccccc1
    i, 1.3, 4, 85, ., ., -0.8
CCn1c(-c2csc(-c3ccccc3)n2)n[nH]c1=S
    ?, ., -2, 105, ., ., -1.1
COC(=O)CC1C(=O)NCCN1C(=O)c1sc2ccccc2c1Cl (stereo not drawn)
    i, 1.1, ., 99, ., ., .
Cc1ccc(S(=O)(=O)N2CCN(C3CCN(Cc4ccccc4)CC3)CC2)cc1
    i, 1, -11, 89, ., ., -1.1
COC(=O)N/N=C/c1c(C)nn(-c2cccc(Cl)c2)c1Cl
    i, 0.9, -10, 103, ., ., -0.3
Cc1ccc(Cl)cc1N1CCN(C(=O)c2ccc(NS(=O)(=O)c3c(C)noc3C)cc2)CC1
    ., ., 0, 87, ., ., 0.5
O=C(CN1CCCc2ccccc21)NCCc1ccc(Cl)cc1
    i, 1.1, 0, 108, -300, 58, .
Cc1scc(C(=O)Nn2cnnc2)c1-c1ccccc1
    i, 1.1, 1, 99, -80, 121, -1.5
COc1cc(C2C(C(=O)c3ccc(C)o3)=C(O)C(=O)N2c2cc(C)on2)cc(Br)c1O (stereo not drawn)
    ?, ., 1, 106, -5, 102, -0.1
Cc1ccc(-c2csc(NC(=O)CSc3nc(C)cs3)n2)cc1
    i, 0.93, -1, 100, 0, 118, -2.0
CCOC(=O)c1c(NC(=S)Nc2ccccc2)sc(C)c1C
    i, 0.78, 4, 79, 46, 129, -1.4
O=C(CCn1c(=O)[nH]c2ccsc2c1=O)N1CCN(Cc2ccc3c(c2)OCO3)CC1
    ., ., -3, 103, 8, 173, -1.8
Cc1ccc(C(=O)C(C)OC(=O)C2=COCCO2)cc1C (stereo not drawn)
    i, 0.93, 0, 199, ., ., -0.8
O=C(CCCSc1nc2ccccc2s1)NCc1ccco1
    i, 0.91, -10, 97, ., ., -3.2
CC[C@H](C)NC(=O)c1ccc(Cn2c(=S)[nH]c3c([nH]c4ccc(OC)cc43)c2=O)cc1
    i, 0.96, 1, 91, -74, 99, 3.2
O=C(Nc1ccc2[nH]c3c(c2c1)CCCC3)c1ccco1
    i, 1, -7, 94, -3, 111, -1.9
C=CCn1c(CNC(=O)c2ccco2)nnc1SCC(=O)c1ccccc1
    i, 0.94, 5, 97, -255, 51, .
Cc1ccc(-c2nc(=S)c3c(n2Cc2cccnc2)CC(C)(C)OC3)cc1
    i, 0.86, ., 103, ., ., .
Cn1cc(-c2nnnn2-c2ccccc2)c(=O)c2ccccc21
    i, 1, 2, 102, ., ., -2.1
O=C(COC(=O)CNC(=O)c1ccccc1)Nc1ccccc1Cl
    i, 0.99, 1, 108, 36, 112, .
C=CCn1c(SCC(=O)OCC)nc(C(F)(F)F)cc1=O
    i, 0.93, 0, 106, ., ., .
COc1ccc(C(C(=O)NC(C)(C)C)N(Cc2ccco2)C(=O)CCC(=O)Nc2cc(C)on2)cc1 (stereo not drawn)
    i, 0.8, -9, 97, ., ., -0.9
CSc1ccccc1C(=O)C1CCCN(Cc2c(C)n(C)n(-c3ccccc3)c2=O)C1 (stereo not drawn)
    i, 1, -3, 108, ., ., .
CC(C(=O)NCCN1C(=O)S/C(=C\c2cccnc2)C1=O)N1C(=O)c2ccccc2C1=O (stereo not drawn)
    i, 1.2, -4, 109, 42, 111, 0.0
O=C(NCc1ccccn1)c1cccc([N+](=O)[O-])c1
    i, 0.93, 3, 107, ., ., -2.6
Oc1ccc(CN2CCc3ccccc3C2)c2cccnc12
    i, 0.57, 2, 97, 14, 17, -4.1
